# hK5 inh: human KLK5 protease inhibitors, primary screen, biochemical, 1536-well; Kallikrein-5 (Homo sapiens), Q9Y337; 210,000 tested, 0.59% active; recombinant hK5, fluorogenic AMC substrate cleavage; inhibition, % at 5 µM;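 active = inhibition of 40% or more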;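 also: 0% = enzyme controls without compound and 100% = no-enzyme blanks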
# Target sequence (Q9Y337 67-293 limits assumed): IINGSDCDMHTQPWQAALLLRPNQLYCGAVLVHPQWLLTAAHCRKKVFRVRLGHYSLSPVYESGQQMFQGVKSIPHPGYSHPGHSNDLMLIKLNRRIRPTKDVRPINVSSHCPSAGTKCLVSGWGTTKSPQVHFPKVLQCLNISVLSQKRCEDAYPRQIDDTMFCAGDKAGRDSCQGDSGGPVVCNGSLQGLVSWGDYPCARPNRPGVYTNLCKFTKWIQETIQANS
# Calpain2 inh: inhibitors of pig calpain II, primary screen, biochemical, fluorogenic peptide substrate, 1536-well; purified calpain II, 30 min; inhibition, % at 16 µM; 220,000 tested, 0.37% active; AID 1236, 2008;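 active = inhibition above about 50%, limit read from the data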
# Furin inh: human furin inhibitors, primary screen, biochemical, fluorescence intensity | 220,000 tested, 0.061% active | AID 463115, 2010 | inhibition, % at 30 µM | purified furin, fluorogenic substrate cleavage; in the data active = inhibition above about 25%; also: inactives centre near -15
# Thrombin inh: human alpha-thrombin inhibitors, primary screen, counter-screen for coagulation protease inhibitor project, biochemical, 1536-well, fluorogenic AMC substrate. Boc-VPR-AMC fluorogenic substrate cleavage. inhibition, % at 5 µM. 220,000 tested, 0.26% active. AID 1046, 2008;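 active = inhibition at or above 40%; inactive = inhibition below 40%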;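 also: 0% = enzyme with no compound and 100% = wells without enzyme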
#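 Test system: human alpha-thrombin; medium: pH 7.5 Tris-saline with Tween 20; times: reaction at room temperature; signal: AMC fluorescence at 355 nm excitation and 460 nm emission; also added: Boc-VPR-AMC substrate, 15 µM final; dosing: one concentration per compound, 5 µM, with 0.2% DMSO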
# PERK inhibitor: block of dimerizer-induced PERK translation repression, primary screen, PERK inhibitor project, CHO PERK-DD cells, SEAP luminescence, HTS | Eukaryotic translation initiation factor 2-alpha kinase 3 (Homo sapiens), Q9NZJ5 | CHO PERK-DD fusion, SEAP luminescence translation reporter | inhibition, % at 5.6 µM | 220,000 tested, 0.17% active | AID 1416, 2008;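 active = inhibition above the mean inhibition of all tested compounds plus 3 SD, set separately per screening campaign, cut at about 2.9% in these data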;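 also: PERK kinase domain activated by AP20187 dimerizer at 100 nM; 0% = DMSO with dimerizer and 100% = rapamycin at 8.4 µM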
# KCC2 mod: KCC2 cotransporter modulators, thallium flux, primary screen, cell-based, HEK293 KCC2, FluoZin-2 fluorescence, MLSMR. B-score of Tl+ flux slope (higher = more flux/activation; lower = inhibition) at 10 µM. Solute carrier family 12 member 5 (Homo sapiens), Q9H2X9. 190,000 tested, 2.2% active. KCC2 cells, thallium flux FluoZin-2 fluorescence;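 active = thallium flux slope and its plate-corrected score both differing from the plate sample mean at a set confidence after two filtering rounds, in either direction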;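 also: slope of fluorescence scaled to starting intensity during 10 to 20 s after thallium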
# Rad51 HR inh: human RAD51 strand exchange inhibitors, primary screen, biochemical, fluorescence; DNA repair protein RAD51 homolog 1 (Homo sapiens), Q06609; hRad51 DNA strand exchange, fluorescence dequenching; inhibition, % at 10 µM; 200,000 tested, 0.085% active;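 active = inhibition above 40% at the single screening dose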;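 also: 0% = DMSO control wells and 100% = blanks with heterologous ssDNA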
#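 Read-out basis: percent inhibition relative to plate controls and blanks / Assay system: human Rad51 nucleoprotein filaments preassembled on unlabelled ssDNA / Timing: filaments 15 min 37 °C, then compound 30 min / Control set: per-plate controls and blanks / Technique: fluorescence dequenching at 485/520 nm / Compound: 10 µM final, single point / Also added: Fluorescein- and BHQ1-tagged 47-mer duplex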
# An asterisk follows results filed as active; i = inactive; . = no result given; [ ] = remark or other dose. Not all compounds are listed; the hit share may differ from the screen's.
SMILES,hK5 inh,Calpain2 inh,Furin inh,Thrombin inh,PERK inhibitor,KCC2 mod,Rad51 HR inh
CN(Cc1ccccc1)C(=O)c1ccc2c(c1)OCCO2,-9,-14,-11,-5,0.2,-0.53,4
CCN(CC)S(=O)(=O)c1cccc(NC(=O)COC(=O)c2cc(C)oc2C)c1,-11,12,-12[20 µM],-5,-0.7,0.092,-3
Cc1cccc(-c2n[nH]c(=S)n2/N=C/c2ccc(C)s2)c1,-9,14,-1,-4,0.0,13*,-5
O=C(NCCCNC(=O)c1ccccn1)c1ccccn1,-22,-5,-18,-9,0.0,-0.15,12
C/C(=N\NC(=O)C(NC(=O)c1ccccc1)C(C)C)c1ccccc1 (stereo not given),-8,-32,-6[20 µM],1,-1.3,-0.048,-1
Fc1ccc(CNCc2cccc(Br)c2)cc1,-9,6,-14,-4,0.9,1.2,-6
CC(=O)N(CCC(c1ccco1)C(C)C)Cc1ccc(Cl)cc1 (stereo not given),-7,24,-19,-4,0.4,-3.5,9
Cc1cc(-c2nsc(=O)o2)c(S(C)(=O)=O)s1,3,-10,-15,8,0.5,1.3,.
Cc1ccc(NC(=O)C2CC(c3ccc(F)cc3)=NO2)cc1 (stereo not given),-4,-10,-37,1,0.0,-0.25,-7
Cc1cccc(N(CC(=O)N2CCN(C)CC2)S(=O)(=O)c2ccccc2)c1,0,17,-7,0,0.0,.,0
COc1ccccc1N1C(=O)C2C(C(=O)c3ccccc3)=NN(c3ccc(Br)cc3)C2C1=O (stereo not given),-2,-82,-11,-6,-0.9,i,-94

# Record cards, as listed above.
# Fc1ccc(CNCc2cccc(Br)c2)cc1 is listed with hK5 inh: -9; Calpain2 inh: 6; Furin inh: -14; Thrombin inh: -4; PERK inhibitor: 0.9; KCC2 mod: 1.2; Rad51 HR inh: -6
# C/C(=N\NC(=O)C(NC(=O)c1ccccc1)C(C)C)c1ccccc1 (stereo not given) is listed with hK5 inh: -8; Calpain2 inh: -32; Furin inh: -6[20 µM]; Thrombin inh: 1; PERK inhibitor: -1.3; KCC2 mod: -0.048; Rad51 HR inh: -1
# CC(=O)N(CCC(c1ccco1)C(C)C)Cc1ccc(Cl)cc1 (stereo not given) is listed with hK5 inh: -7; Calpain2 inh: 24; Furin inh: -19; Thrombin inh: -4; PERK inhibitor: 0.4; KCC2 mod: -3.5; Rad51 HR inh: 9

# 4 records drawn at random from the list so far:
SMILES,hK5 inh,Calpain2 inh,Furin inh,Thrombin inh,PERK inhibitor,KCC2 mod,Rad51 HR inh
COc1ccccc1N1C(=O)C2C(C(=O)c3ccccc3)=NN(c3ccc(Br)cc3)C2C1=O (stereo not given),-2,-82,-11,-6,-0.9,i,-94
CN(Cc1ccccc1)C(=O)c1ccc2c(c1)OCCO2,-9,-14,-11,-5,0.2,-0.53,4
Cc1ccc(NC(=O)C2CC(c3ccc(F)cc3)=NO2)cc1 (stereo not given),-4,-10,-37,1,0.0,-0.25,-7
Cc1cc(-c2nsc(=O)o2)c(S(C)(=O)=O)s1,3,-10,-15,8,0.5,1.3,.
